Compound activity as filed in PubChem BioAssay.
VDR inhibitor: blocks the human vitamin D receptor. Potency, µM, for inactives: max response, negative = inhibition, actives largely listed as inhibitors. VDR-SRC2-3 peptide fluorescence polarization, 2 h. AID 504847. 0.93% of 400,000 active; active means well fitted inhibition curve with a large enough effect; inconclusive means small, poorly fitted or top-dose-only effect, or another doubt; inactive means no such curve, though single readings can be large or run the other way; further: series mostly up to about 120 µM
Target sequence (P11473 whole entry, looked up): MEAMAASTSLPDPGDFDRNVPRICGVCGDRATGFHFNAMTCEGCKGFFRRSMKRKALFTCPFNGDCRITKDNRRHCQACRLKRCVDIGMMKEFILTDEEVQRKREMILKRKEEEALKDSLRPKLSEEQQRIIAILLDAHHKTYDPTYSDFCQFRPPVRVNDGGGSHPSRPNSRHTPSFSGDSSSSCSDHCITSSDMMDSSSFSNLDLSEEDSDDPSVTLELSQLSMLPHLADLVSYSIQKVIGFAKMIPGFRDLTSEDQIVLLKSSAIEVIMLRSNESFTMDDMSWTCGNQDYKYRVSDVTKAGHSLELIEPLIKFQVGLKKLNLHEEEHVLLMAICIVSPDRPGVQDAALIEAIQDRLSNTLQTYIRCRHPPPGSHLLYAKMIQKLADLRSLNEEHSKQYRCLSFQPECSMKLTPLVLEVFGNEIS
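Inhibition of the VDR/SRC2-3 peptide interaction is quantified by fluorescence polarization. Compounds (23 nl, pintool) incubate with the reagents for 2 hours at ambient room temperature.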
* marks the source's active call; other numbers are inactive results; ? = inconclusive; & = joins results of further samples; [ ] = remark or other dose. On the % scale 0 is the no-effect control and ±100 the full control effect; potency means the concentration at half of the fitted maximal effect.

canonical_smiles	VDR inhibitor
COc1ccc(N2CCN(C(=O)c3nn(-c4ccc(C)cc4)c(=O)n(C)c3=O)CC2)cc1	11%
COc1ccccc1NCC(O)COc1ccc(C(C)(C)C)cc1 (stereo not given)	-14%
CC(C)c1ccc(C2(O)C(=O)Nc3cc(Br)ccc32)c(O)c1 (stereo not given)	?
COc1ccc(CNC(=O)/C=C/c2cc([N+](=O)[O-])ccc2OC(F)F)cc1OC	-12%
Cc1[nH]nc(SCC(=O)NCc2ccc(Cl)cc2)c1[N+](=O)[O-]	-16%
CC(C)CCNC(=O)CN(Cc1ccco1)C(=O)c1snc(C(N)=O)c1N	-16%
CCNS(=O)(=O)c1ccc(CCC(=O)N2CCN(C(=O)OCC)CC2)cc1	-11%
COC(=O)[C@H](C)NC(=O)NCc1ccccc1	-7%
O=C(O)c1ccccc1-c1nc2ccccc2[nH]1	-18%
COC(=O)Nc1ccc(S(=O)(=O)N2CCCC(C(=O)N3CCCCCC3)C2)cc1 (stereo not given)	-4%
O=C(COC(=O)C1CC2C=CC1C2)NCc1ccco1 (stereo not given)	-6%
CCC(=O)N(CCC(c1ccco1)C(C)C)Cc1ccccc1 (stereo not given)	?
CC(C)CCNC(=O)[C@@H](c1ccccc1)N1Cc2ccccc2C1=O	-8%
Cc1nn(C(C)C(=O)O)c(C)c1[N+](=O)[O-] (stereo not given)	20%
O=C(Nc1ccc(C(=O)NCc2ccc(F)cc2)cc1)C1=CSCCO1	-10%
CCN(CC)C(=O)C1=CC(c2ccc3c(c2)OCO3)=NS(=O)(=O)N1C	8%
O=S(=O)(c1ccc(OCC(O)CN2CCN(c3ccc(F)cc3)CC2)cc1)N1CCOCC1 (stereo not given)	-2%
Cn1cc(-c2nc3cnc(N4CCNCC4)nc3n(Cc3ccc(F)cc3)c2=O)c2ccccc21	49%[activator]
O=C(Cn1cccc(C(F)(F)F)c1=O)c1ccc(Cl)cc1	-6%
O=C(O)CCC1COc2ccccc2O1 (stereo not given)	-2%
CCc1ccc(CN(C)C(=O)c2cccc(S(=O)(=O)Nc3ccccc3OC)c2)cc1	-5%
COC(=O)Cn1c(=NC(=O)c2ccc(OC)c(OC)c2)sc2cc(OC)ccc21	-15%
O=[N+]([O-])c1ccc(N2CCCCC2)cc1SCCO	-24%
O=C1C(=O)C(c2ccccc2)C(=O)C1c1ccccc1 (stereo not given)	-22%
COc1cc2c(cc1OC)C(c1cccc([N+](=O)[O-])c1)N(C(=O)c1ccccc1C(=O)O)CC2 (stereo not given)	9%

By substructure, those above containing a carbonyl joined to an NH by a bond outside any ring (8)
canonical_smiles	VDR inhibitor
COc1ccc(CNC(=O)/C=C/c2cc([N+](=O)[O-])ccc2OC(F)F)cc1OC	-12%
Cc1[nH]nc(SCC(=O)NCc2ccc(Cl)cc2)c1[N+](=O)[O-]	-16%
CC(C)CCNC(=O)CN(Cc1ccco1)C(=O)c1snc(C(N)=O)c1N	-16%
COC(=O)[C@H](C)NC(=O)NCc1ccccc1	-7%
COC(=O)Nc1ccc(S(=O)(=O)N2CCCC(C(=O)N3CCCCCC3)C2)cc1 (stereo not given)	-4%
O=C(COC(=O)C1CC2C=CC1C2)NCc1ccco1 (stereo not given)	-6%
CC(C)CCNC(=O)[C@@H](c1ccccc1)N1Cc2ccccc2C1=O	-8%
O=C(Nc1ccc(C(=O)NCc2ccc(F)cc2)cc1)C1=CSCCO1	-10%

Going on with the list.
canonical_smiles	VDR inhibitor
COc1ccc(-c2nnn(CCC(=O)O)n2)cc1	-8%
O=C(NCCN1CCN(c2ccccc2F)CC1)C1COc2ccccc2C1 (stereo not given)	12%
Cn1cccc1C(=O)N1CCC[C@@]2(CCN(Cc3nccs3)C2)C1	-5%
CCc1ccc(-c2cc3c(=O)n(CC(=O)NCCN4CCCCC4C)nc(C)n3n2)cc1 (stereo not given)	9%
O=[N+]([O-])c1ccc(N2CCN(c3ccccc3F)CC2)nc1	5%
O=C(/C(C=Nc1ccc(Br)cc1)=C(/O)c1ccco1)C(F)(F)F	-9%
COc1cc(S(=O)(=O)N2CCOCC2)cc(C(=O)NCC(c2cccs2)N2CCOCC2)c1OC (stereo not given)	-16%
COc1ccc(CCNC(=O)c2ccc3c(c2)CCN3S(=O)(=O)c2ccccc2)cc1OC	-8%
Cc1ccc(CCNC(=O)C2CCCN(S(=O)(=O)N3CC(C)CC(C)C3)C2)cc1 (stereo not given)	6%
COC(=O)c1cc(C#N)c(NCc2ccc(Cl)cc2Cl)nc1C	7%
O=C(Oc1cccc2ccccc12)C1CC1	-36%
Cc1nc2cc(N3CCCCC3)c(NC(=O)c3cccnc3)cc2c(=O)n1Cc1ccccc1	-6%
Cn1ccnc1SCC(=O)c1cc2ccccc2o1	-27%
COc1ccc(-c2ccc(CCC(=O)O)n2NC(N)=O)cc1	-11%
CCOc1ccc(C(c2c(C)[nH]n(-c3ccccc3)c2=O)c2c(C)[nH]n(-c3ccccc3)c2=O)cc1OC	?
COc1ccc(C2CC(c3ccc(Cl)cc3)n3nc(N)nc3N2)cc1 (stereo not given)	-23%
C#CCOCCOCCOCCNc1nc(N2CCN(C(=O)[C@H](CCCCN)n3cc([C@@H](N)[C@H](C)CC)nn3)CC2)nc(N2CCN(C(=O)[C@H](CCCCN)n3cc([C@@H](N)CC(N)=O)nn3)CC2)n1	9%
N#Cc1c(N)n(CCc2ccc(F)cc2)c2nc3ccccc3nc12	-16%
CC1(C)Oc2ccc3ccc(=O)oc3c2C[C@H]1O[C@@H]1O[C@H](CO)[C@@H](O)[C@H](O)[C@H]1O	-12%
CC(C)(C)c1nnc(N/N=C/c2cc(Br)ccc2O)n(N)c1=O	-18%
O=C(CCCOc1ccc(Cl)cc1Cl)N1CCN(c2ccccn2)CC1	0%
Cc1ccc(-n2nc3c(c2NC(=O)C(C)(C)C)CSC3)c(C)c1	-11%
O=C(N/N=C/c1c[nH]c2ccccc12)c1cc(-c2cccc3ccccc23)n[nH]1	7%
O=C(OCC(=O)c1c[nH]c2ccccc12)c1ccc(Br)o1	-8%
COc1ccc(C(=O)CSc2nnc3ccc(-c4ccccn4)nn23)cc1	-6%

Following part:
canonical_smiles	VDR inhibitor
O=C(O)c1cc2cc(F)ccc2[nH]1	12%&-10%
O=C(/C=C1\SC(=O)N(CC(=O)Nc2ccc(F)cc2)C1=O)Nc1ccc(Cl)cc1	-1%
COc1ccc(N2CCN(C(=O)CSc3nnc4c5cc(C)ccc5n(C)c4n3)CC2)cc1	-6%
CSCCC(NC(=O)c1cccc([N+](=O)[O-])c1)c1nc2ccccc2[nH]1 (stereo not given)	-21%
O=C(CCNS(=O)(=O)c1ccccc1C(F)(F)F)NNC(=O)c1csc(N2CCOCC2)n1	-7%
CCC1Sc2ccc(S(=O)(=O)CCC(=O)Nc3ccc(NC(C)=O)cc3)cc2NC1=O (stereo not given)	5%
COCc1c(C(=O)Nc2ccc(Cl)cc2F)oc2ccccc12	5%
COc1cc(CNC(=O)c2nc(Cn3nc(C)c(Br)c3C)no2)cc(OC)c1	16%
O=C(C[C@@H]1C/C=C/CC[C@@H](Cc2ccc(F)cc2)C(=O)OCCNC1=O)N[C@H](CO)Cc1ccccc1	1%
CC1CN(C(=O)CN2C(=O)NC3(CCCCCCC3)C2=O)CC(C)O1 (stereo not given)	4%
COc1cc(OC)c2c(C)cc(=O)oc2c1	-6%
COc1oc(=O)c2cc(N)ccc2c1Cl	?
C[C@H](NC(=O)C1CCN(S(=O)(=O)c2ccccc2)CC1)C(=O)NCc1cccc(C(F)(F)F)c1	-8%
COc1ccc(N(C(=O)CNC(=O)c2cccs2)C(C(=O)NCC2CCCO2)c2ccccc2)cc1OC (stereo not given)	13%
COc1ccc(CC(=O)NNS(=O)(=O)c2ccc(F)cc2)cc1	1%
COc1ccccc1NS(=O)(=O)c1ccc(O)c(C(N)=O)c1	7%
Cc1cc(C)nc(CCNC(=O)C2CCC(=O)N(Cc3ccccc3F)C2)n1 (stereo not given)	1%
CSc1ncccc1C(=O)OCC(=O)NC(C)CCc1ccccc1 (stereo not given)	6%
COc1ccc(/C=C/C(O)=C2/C(=O)N(C)C3(C)CC2c2ccccc2O3)cc1 (stereo not given)	-16%
COc1ccccc1NS(=O)(=O)c1cc(NC(=O)CCc2nc3ccccc3c(=O)[nH]2)ccc1C	-8%
CCC(C(=O)OCC(=O)NCc1ccc2c(c1)OCO2)c1ccccc1 (stereo not given)	-7%
CS(=O)(=O)c1ccc(C(=O)Nc2ccccc2N2CCOCC2)c(Cl)c1	17%
CC1CCc2nc(/C(C#N)=C/c3ccncc3)sc2C1 (stereo not given)	-21%
O=C(CN1CCN(c2ccccc2)CC1)Nc1cccc([N+](=O)[O-])c1	19%
Cc1cccc(NC(=O)NCC(c2ccc(F)cc2)N2CCN(C)CC2)c1 (stereo not given)	-10%

Three entries out of the list, ordered by length of the SMILES, lowest first.
canonical_smiles	VDR inhibitor
CCC(C(=O)OCC(=O)NCc1ccc2c(c1)OCO2)c1ccccc1 (stereo not given)	-7%
CC1CN(C(=O)CN2C(=O)NC3(CCCCCCC3)C2=O)CC(C)O1 (stereo not given)	4%
COc1cc(CNC(=O)c2nc(Cn3nc(C)c(Br)c3C)no2)cc(OC)c1	16%

(cont.)
canonical_smiles	VDR inhibitor
CSc1ccc(CN2CCc3c([nH]c4ccccc34)C2)cc1	-16%
CC(=O)N1c2ccc3ccccc3c2C(C)CC12CCCCC2 (stereo not given)	-17%
COc1ccc(C2C(C(N)=O)=C(C)Nc3nc(CCCO)nn32)c(OC)c1 (stereo not given)	-3%
COc1ccc(OC)c(NCc2nnc(-c3ccccc3)o2)c1	-6%
COc1ccc(-c2cn(CCO)c(-c3ccc(Cl)nc3)n2)cc1	-15%
COc1cc(NC(=O)C2CC2)c(OC)cc1NC(=O)CCC(=O)NC1CCN(Cc2ccccc2)CC1	-13%
CCOCCCNC(=O)C1CCC(CNS(=O)(=O)c2ccc(Cl)cc2)CC1 (stereo not given)	-8%
N#Cc1nccnc1N1CCN(C(=O)Nc2ccccc2)CC1	5%
CCC(CC)C(=O)N1CCN(Cc2nc3ccccc3c(=O)[nH]2)CC1	1%
COc1ccc(CCNC(=O)CCC(=O)Nc2ccc3nc(N4CCN(C)CC4)cc(C)c3c2)cc1OC	-8%
CC12CCC(C(=O)N(NC(=O)c3ccc(O)cc3)C1=O)C2(C)C (stereo not given)	10%
COc1cccc(-c2nc(NC(C)C)c3ccccc3n2)c1O	-2%
CCc1nnc(NC(=O)CCc2c[nH]c3ccccc23)s1	1%
Cc1ccc(S(=O)(=O)N2CCC(C(=O)NC3CC(C)(C)NC(C)(C)C3)CC2)cc1C	-13%
COc1ccccc1-c1nc(C#N)c(N2CCN(c3cccc(Cl)c3)CC2)o1	-5%
Cc1ccc(NC(=O)CN2C(=O)C(C)(C)c3ccccc32)cc1	5%
CC(C)CC(CO)N1CCN(C(=O)c2ccccc2)CCC1=O (stereo not given)	-12%
CCN(Cc1nc2ccccc2c(=O)[nH]1)C(=O)c1cc2c(s1)CCCCC2	-1%
Cc1n[nH]c(=O)c2c(NC(=O)CSc3nc4ccccc4c(=O)n3CCCO)oc(C)c12	-10%
Oc1ccccc1CNc1cnc2ccccc2c1	-1%
CCc1ccc(NC(=O)C(NS(=O)(=O)c2cccc3nsnc23)c2ccccc2)cc1 (stereo not given)	2%&-3%
ClC1(Cl)CC1Cn1cnc2ccccc21 (stereo not given)	11%
Cc1ccc(S(=O)(=O)Nc2cccc3cccnc23)cc1	-5%
CCCCC(=O)Nc1nnc(SCC(=O)Nc2ccc(OC)cc2)s1	-8%
COc1ccc(S(=O)(=O)N(CC(=O)NCCC(C)C)c2ccccc2)cc1OC	9%

Continued:
canonical_smiles	VDR inhibitor
CCOC(=O)C1CCN(Cc2cnc(Oc3ccc(N)cc3)s2)CC1	4%
COc1ccc(F)cc1C(=O)C1CCCN(Cc2cccn2-c2ccccn2)C1 (stereo not given)	-3%
COc1ccc(NC(=O)CCSc2ccc(C)cc2)cc1	6%
COc1ccc(NC(=O)c2cccc(N3CCCS3(=O)=O)c2)c(OC)c1	6%
O=C(/C=C\c1ccc(-c2cccc([N+](=O)[O-])c2)o1)N1CCOCC1	-23%
O=C(NCc1ccc2c(c1)OCO2)O[C@@H]1C(=O)c2cc(Br)ccc2O[C@H]1c1ccc2c(c1)OCO2	1%
O=C(C=C1NCCN1)c1ccccc1	-3%
CCN(C(=O)c1ccc(S(C)(=O)=O)cc1)C12CC3CC(CC(C3)C1)C2	-22%
COC(=O)c1oc2ccc(Cl)cc2c1N	-6%
COc1ccc(NC(=O)c2cc(Cl)ccc2Cl)c([N+](=O)[O-])c1	-10%
COc1ccc(C2C(C(=O)/C=C/c3ccco3)=C(O)C(=O)N2CCN2CCOCC2)cc1 (stereo not given)	-20%
O=[N+]([O-])c1cc(C(F)(F)F)ccc1Sc1nccn1Cc1ccccc1	?
O=C(Cc1cn2ccsc2n1)NCc1ccccc1	11%
CC(=O)Nc1ccc(OCC(O)Cn2cncn2)cc1 (stereo not given)	-18%
COc1cccc(CN2CCC(C(=O)N3CCN(c4ccccc4F)CC3)CC2)c1OC	1%
COCCOc1ccc(C(F)(F)F)cc1NC(=O)CN1C(=O)NC2(CCCc3ccccc32)C1=O (stereo not given)	11%
COc1cccc(C2CC(c3cccs3)=NN2C(=O)CCC(=O)O)c1OC (stereo not given)	-6%
Cc1ccc(NC(=O)CN(C)S(=O)(=O)c2cccc3nsnc23)c(C)c1	-9%
Cc1cccc(C)c1NC(=O)CSc1ncnc2nc[nH]c12	1%
O=C(Nc1cccnc1)c1cccc(F)c1	-5%
Cc1ccc(/C=C/C(=O)NCc2cccs2)o1	-8%

Some of the compounds tested. The share of hits here may be higher or lower than overall.
